# hNpr1 antagonist – blocks ANP-stimulated signaling of human Npr1 receptor; P16066; HEK293 hNpr1 GloSensor cGMP, ANP-stimulated luminescence; Potency, µM (doses to about 46.3 µM), without a hit: at the highest dose activity change, negative = inhibition, actives largely listed as inhibitors; actives 1.6% (n = 76,000); AID 1347048; active = well fitted inhibition curve with a large enough effect; inconclusive = small, poorly fitted or top-dose-only effect; inactive = no such curve, though single readings can be large or run the other way;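 also: nearly all actives have a fitted effect of over 60% in size; nearly all hits also lower the signal before the agonist is added; a reference antagonist and vehicle were the controls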
# Target sequence (P16066 whole entry, looked up): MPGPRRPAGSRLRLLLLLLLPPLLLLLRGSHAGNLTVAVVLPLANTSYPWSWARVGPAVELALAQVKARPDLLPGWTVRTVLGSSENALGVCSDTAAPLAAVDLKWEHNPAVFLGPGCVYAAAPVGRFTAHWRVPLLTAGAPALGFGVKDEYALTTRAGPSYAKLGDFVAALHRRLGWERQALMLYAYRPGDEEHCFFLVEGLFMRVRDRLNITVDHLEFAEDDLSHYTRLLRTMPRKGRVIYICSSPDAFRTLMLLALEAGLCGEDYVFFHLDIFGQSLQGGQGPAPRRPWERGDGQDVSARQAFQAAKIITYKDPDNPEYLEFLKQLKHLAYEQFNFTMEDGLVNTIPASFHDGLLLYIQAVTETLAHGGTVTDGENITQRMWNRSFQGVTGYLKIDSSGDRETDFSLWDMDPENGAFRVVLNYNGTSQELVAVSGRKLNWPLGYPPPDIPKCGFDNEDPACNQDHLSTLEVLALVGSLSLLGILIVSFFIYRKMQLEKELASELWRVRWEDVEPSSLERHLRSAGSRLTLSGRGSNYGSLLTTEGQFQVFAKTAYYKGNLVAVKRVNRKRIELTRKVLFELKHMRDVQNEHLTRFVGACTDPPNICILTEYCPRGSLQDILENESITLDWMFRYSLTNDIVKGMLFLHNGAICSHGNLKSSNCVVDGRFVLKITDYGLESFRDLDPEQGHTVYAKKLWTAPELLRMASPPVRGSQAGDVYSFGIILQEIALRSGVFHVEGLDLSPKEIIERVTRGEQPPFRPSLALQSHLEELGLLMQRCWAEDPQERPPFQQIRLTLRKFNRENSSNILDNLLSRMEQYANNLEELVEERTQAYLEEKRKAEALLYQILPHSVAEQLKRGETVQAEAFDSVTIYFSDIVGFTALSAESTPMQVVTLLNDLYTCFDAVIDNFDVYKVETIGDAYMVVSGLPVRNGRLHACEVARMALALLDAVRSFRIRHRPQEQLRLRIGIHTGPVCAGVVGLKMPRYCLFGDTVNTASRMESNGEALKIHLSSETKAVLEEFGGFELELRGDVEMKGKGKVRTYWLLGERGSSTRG
#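 Compound pre-incubated 30 min at room temperature on GloSensor-loaded HEK293 cells stably carrying hNpr1 and the pGS-40F cGMP biosensor. Stimulation uses hNppA at 0.1 nM final; luminescence is taken at baseline and 20 min post-agonist.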
# * = called active by the depositor; u = inconclusive; [ ] = another dose, or the depositor's remark. % is scaled to controls: 0 for no effect and ±100 for the full control effect; potency is read from the fitted curve at half-maximal effect. Not all compounds are listed. The share of hits here may be higher or lower than overall.
SMILES,hNpr1 antagonist
O=C(Cn1ccn2nc(-c3ccccc3)c(CO)c2c1=O)Nc1cc(F)ccc1Cl,-9%
Cc1noc(C)c1CN1CCC(NC(=O)C2CCC2)CC1,6%
CCc1noc(-c2ccn3c(CNC(=O)c4cccc5[nH]ccc45)nnc3c2)n1,-1%
CCc1ccc(S(=O)(=O)N2CCCC(CNC(=O)c3ccccc3Cl)C2)cc1 (stereo unspecified),-1%
O=C(CC1C(=O)NCCN1Cc1ccc(-c2ccccc2)cc1)NC(CO)CO (stereo unspecified),4%
CNC(=O)Cn1nc(C2CCN(C(=O)c3ccc(F)cc3)CC2)c2c1CCOC2,-2%
COc1ccc(-n2nc(C3CCN(C(=O)c4ccccc4F)CC3)[nH]c2=O)cc1,-6%
COC[C@@H]1CN(C(=O)COc2cccc(C)c2)C[C@H]1c1ccccn1,-2%
O=C(c1ccccc1F)N1CCC2(CC1)NCCc1c2[nH]c2ccccc12,3%
O=C(NC1CCN(c2cc(-c3ccc(F)cc3)[nH]n2)C1)c1ccc(Br)cc1 (stereo unspecified),-3%
COc1cc(OC)cc(C(=O)N2CCC(c3n[nH]c(=O)n3-c3ccccc3)CC2)c1,0%
Cc1cc(=O)n(CC(=O)NC(C)CCc2ccccc2)c(N2CCOCC2)n1 (stereo unspecified),0%
CCCn1c(C)cnc1C1CCN(S(=O)(=O)c2ccc3c(c2)CCC3)C1 (stereo unspecified),-1%
Cc1cnc(CC2CCN(C(=O)NC(C)(C)C)CC2)n1Cc1ccc(F)cc1,3%
CC1(C(=O)NCc2ccccc2)CN(Cc2ccccc2)Cc2ccc(N3CCOCC3)nc21 (stereo unspecified),-19%
CS(=O)(=O)NCCC(=O)N1CC[C@@H]2[C@@H](CCC(=O)N2CCN)C1,-17%
CN(C)C(=O)CN1C(=O)CO[C@H](c2ccc(NC(=O)c3ccc(F)c(Cl)c3)cc2)[C@H]1CO,-1%
CCN(CC)Cc1cnc2c(C(=O)NC(C)c3ccc(O)cc3)cnn2c1 (stereo unspecified),-1%
CN(C)c1cccc(C(=O)N2CCC3(CC2)N=C(c2cccc(Br)c2)NO3)c1,1%
Cn1nccc1C(O)c1cc2n(n1)CCN(Cc1nc(C3CC3)no1)C2 (stereo unspecified),0%
O=C(NCCc1ccccn1)C1c2ccccc2C(=O)N(Cc2ccccc2)C12CCCC2 (stereo unspecified),2%
COc1ccc(CN2C=C(C(=O)OCc3noc(-c4ccc(OC)cc4)n3)C(C)=NS2(=O)=O)cc1,u
O=C(NC1CC1)C1CCN(C2CCN(C(=O)c3c(O)cccc3O)CC2)CC1,7%
CCC(=O)N1CCN(c2nc3c(s2)CC(C(=O)Nc2ccc(C(C)C)cc2)CC3)CC1 (stereo unspecified),u
Cc1ccc2c(n1)N(C)[C@H](CO)CCN(Cc1ccccc1Cl)C2,-9%[70.6 µM]

# Laid out differently: entries from further up.
hNpr1 antagonist	SMILES
-9%	O=C(Cn1ccn2nc(-c3ccccc3)c(CO)c2c1=O)Nc1cc(F)ccc1Cl
6%	Cc1noc(C)c1CN1CCC(NC(=O)C2CCC2)CC1
-1%	CCc1noc(-c2ccn3c(CNC(=O)c4cccc5[nH]ccc45)nnc3c2)n1
-1%	CCc1ccc(S(=O)(=O)N2CCCC(CNC(=O)c3ccccc3Cl)C2)cc1 (stereo unspecified)
4%	O=C(CC1C(=O)NCCN1Cc1ccc(-c2ccccc2)cc1)NC(CO)CO (stereo unspecified)
-2%	CNC(=O)Cn1nc(C2CCN(C(=O)c3ccc(F)cc3)CC2)c2c1CCOC2
-6%	COc1ccc(-n2nc(C3CCN(C(=O)c4ccccc4F)CC3)[nH]c2=O)cc1
-2%	COC[C@@H]1CN(C(=O)COc2cccc(C)c2)C[C@H]1c1ccccn1
3%	O=C(c1ccccc1F)N1CCC2(CC1)NCCc1c2[nH]c2ccccc12
-3%	O=C(NC1CCN(c2cc(-c3ccc(F)cc3)[nH]n2)C1)c1ccc(Br)cc1 (stereo unspecified)
0%	COc1cc(OC)cc(C(=O)N2CCC(c3n[nH]c(=O)n3-c3ccccc3)CC2)c1
0%	Cc1cc(=O)n(CC(=O)NC(C)CCc2ccccc2)c(N2CCOCC2)n1 (stereo unspecified)
-1%	CCCn1c(C)cnc1C1CCN(S(=O)(=O)c2ccc3c(c2)CCC3)C1 (stereo unspecified)
3%	Cc1cnc(CC2CCN(C(=O)NC(C)(C)C)CC2)n1Cc1ccc(F)cc1
-19%	CC1(C(=O)NCc2ccccc2)CN(Cc2ccccc2)Cc2ccc(N3CCOCC3)nc21 (stereo unspecified)
-17%	CS(=O)(=O)NCCC(=O)N1CC[C@@H]2[C@@H](CCC(=O)N2CCN)C1

# Next results follow:
SMILES,hNpr1 antagonist
COc1ccc(CN2CCOc3ccc(C(=O)NCc4ccccc4F)cc3C2)c(OC)c1,-6%
Cc1ccc2c(c1)nc1n2[C@@H](CNC2CCN(C)CC2)COC1,-3%[70.6 µM]
CN1C(=O)c2cccn2CC1CNC(=O)CCc1nc2ccccc2s1 (stereo unspecified),-9%
CN(C)c1ccc(C(=O)NC2CCCN(c3cc(-c4ccc(F)cc4)[nH]n3)C2)cc1 (stereo unspecified),-10%
CCc1ccc(NC(=O)N2CC3CC(C2)[C@H]2CCCC(=O)N2C3)cc1 (stereo partly specified),1%
CCC(=O)N1CCN(c2nc3c(s2)CC(C(=O)Nc2ccc(OC)c(F)c2)CC3)CC1 (stereo unspecified),-8%
CN1C(=O)COC[C@@H]1[C@H](O)c1ccc(NC(=O)Nc2ccccc2)cc1,0%[70.6 µM]
Cc1ccc(NC(=O)N2CCC(CCNC(=O)C3CC3)CC2)cc1,-5%
O=C1OC2(CN1CC1CCOCC1)CN(c1ccccc1-c1ccccc1)C2,-24%[70.6 µM]
Cc1ccc(C(=O)N2CCC[C@H](n3c(=O)n(Cc4ccccc4)c4cccnc43)C2)cn1,6%
O=C1NCCOCCN(S(=O)(=O)c2ccc3c(c2)CCC3)[C@H]2CCC[C@@H]12,0%
O=C(N[C@@H]1CCOC[C@H]1OCc1cscn1)c1ccccc1-n1cccn1,-1%
O=C1COCC2(CN(Cc3ccsc3)C2)CN1Cc1cccc(OC(F)(F)F)c1,-19%[70.6 µM]
COC[C@H]1C[C@@H](NCc2ccc(C)o2)[C@H](O)[C@@H]1O,4%[70.6 µM]
O=C(c1c(OCC2CC2)cc(=O)n2c1CCCCC2)N1CCOCC1,0%
Cc1nccc(-c2ccccc2)c1C(=O)N[C@H]1C[C@@H]2OCC[C@H]12,1%
Cc1cccnc1C(=O)N1C[C@@H](COc2ccccc2)[C@H](C(N)=O)C1,-2%
Cc1ccsc1CN1CCCC(c2nc(CCOCC3CCOCC3)no2)C1 (stereo unspecified),-11%
Cn1ncc(N2CCCC(CC(=O)NCC3CC3)C2)cc1=O (stereo unspecified),5%
COc1ccc(C(=O)Nc2ccc(-c3noc([C@@H]4CCCN4Cc4ccc(Cl)cc4)n3)cn2)cc1,u
Cc1c(-c2ccc(F)cc2)[nH]c2ccc(CNC(=O)c3ccc(CO)o3)cc12,u
c1cc2nncn2nc1NC1CCCCC1,5%
Cc1cc(N2C[C@H]3CN(C(=O)CN(C)C)C[C@@]3(C(=O)O)C2)nc(N)n1,-4%
O=C(c1ccc(C(F)(F)F)cc1)N1CCC2(C1)C(=O)N(CCc1ccccc1)c1ccccc12 (stereo unspecified),u
CC(C)CNC(=O)C1Cn2cccc2C(=O)N1CC(C)C (stereo unspecified),-11%
SMILES,hNpr1 antagonist
CCOc1ccccc1NC(=O)N1C[C@@H](F)C[C@H]1C(=O)N1CCCCC1,2%
CCCN(CCC)C(=O)C1COC2(CCC(C)CC2)N1C(=O)c1ccc(F)cc1 (stereo unspecified),2%
CN(C)c1nc2c(c(=O)[nH]1)CCN(Cc1ccc(C(F)(F)F)cc1)CC2,0%
COc1cccc(C(CC(=O)NCC(C)C)c2c[nH]c3ccccc23)c1 (stereo unspecified),-5%
CC(=O)N1CCC(NC[C@H]2O[C@H](Cc3cc(-c4cccc(O)c4)on3)CC[C@@H]2O)CC1,25µM*
CN(C)C[C@@H]1CN(C)C[C@H]1NS(=O)(=O)c1ccc(Cl)cc1,4%
CCCNC(=O)C(NC(=O)c1ccc(OC)cc1)C1CCN(C(=O)COC)CC1 (stereo unspecified),4%
COCCc1nncn1C1CCN(C(=O)c2ccc(C(F)(F)F)cc2)CC1,2%
COc1cccc(C(=O)NC2CCN(c3cc(-c4cccs4)[nH]n3)CC2)c1OC,-22%
CCOCCN1C[C@]23C=C[C@H](O2)C(C(=O)N2CCC(F)(F)CC2)C3C1=O (stereo partly specified),2%
Cc1nn(-c2ccccc2)nc1C(=O)N[C@H](C)c1onc(C)c1C(=O)O,6%[70.6 µM]
Cc1ccc(C(=O)N2C[C@@H](CO)[C@H](c3ccccn3)C2)cc1C,4%
O=C1Nc2ccccc2CC12CCN([S+](=O)([O-])c1cccc(C(F)(F)F)c1)CC2,16%
CC1(C)C(=O)N(Cc2ccccc2)[C@H]2CN(CC3CCOCC3)C[C@@H]2[S+]1(=O)[O-],2%[70.6 µM]
O=C1c2cnc(-c3ccccc3OCc3ccccc3)nc2OCCN1CC1CC1,-1%[70.6 µM]
CCCCN1C(=O)CC[C@H]2CN(C(=O)c3ccccc3Cl)CC[C@H]21,-7%
O=C(Cc1ccccn1)N1CCCN(c2nc3ncccc3o2)CC1,13%
COC[C@H]1CCCN1C(=O)[C@@H](C)C1CC[C@@]2(C)CC[C@H](NC(=O)c3ccccn3)[C@@H](C)[C@@H]2[C@H]1O (stereo partly specified),-1%
Cc1cc2cc(C(=O)N3C[C@H]4CC=CC[C@H]4C3)ccc2o1,2%
COC1CCC12CCN(Cc1cccc(C#N)c1)CC2 (stereo unspecified),-6%
COCCc1nncn1C1CCN(C(=O)c2ccc(C)c(F)c2)CC1,2%
CC(C)c1noc(-c2cn(C3CCN(C(=O)c4ccc5ccccc5n4)C3)nn2)n1 (stereo unspecified),u
COCc1nc(C2CCN(C(=O)C3CC3)C2)no1 (stereo unspecified),-3%
CCC(C)C(=O)Nc1c(C(=O)OC)n(CC2CCCO2)c2ncc(NC(C)CCO)cc12 (stereo unspecified),3%
COc1ccc(-c2ccnc3nc(Cc4cc(F)cc(F)c4)nn23)c(F)c1,-7%
SMILES,hNpr1 antagonist
CC#CC(=O)N1CCCCC1C(=O)Nc1ccc(-n2nc(C)cc2C)cc1 (stereo unspecified),4%
O=S(=O)(Cc1ccc(F)cc1)N1CCC(C2CCNC2)CC1 (stereo unspecified),4%
Cc1cn2nc(C(=O)NCc3ccncc3)cc2c(=O)[nH]1,-1%
CN1C(=O)[C@H]2CN(Cc3ccc(C(F)(F)F)cc3)C[C@H]2C1=O,3%
COc1ccc(CC(=O)NC(C)C(=O)N2CCN(c3ccccn3)CC2)cc1 (stereo unspecified),5%
O=C(c1ccc(C(F)(F)F)cc1)N1CCC(c2n[nH]c(=O)n2Cc2ccc(F)cc2)CC1,-2%
COCCN1C(=O)CS(=O)(=O)C12CCN(C(=O)c1ccc(C)s1)CC2,1%
O=C(O)Cn1nc(COc2ccc(F)cc2)nc1CN1CCCCCC1=O,5%
O=C(CCC[C@H]1NC[C@@H]2CC1CN(Cc1ccccc1)C2)NCCCc1ccccc1,3%
CO[C@@H]1CO[C@H]2[C@@H]1OC[C@@H]2NC(=O)C1CCC1,9%[70.6 µM]
COc1cccc(-c2nc3cnccn3c2NCCC(=O)N2CCCC(C)C2)c1 (stereo unspecified),4%
COc1ccc(CN2C[C@@H](F)[C@@H](OCc3nc4ncccc4[nH]3)C2)cc1,0%[70.6 µM]
Cc1ccc(NC(=O)N[C@@H]2C=C(C(=O)NCCC(N)=O)C[C@@H](O)[C@@H]2O)cc1,4%[70.6 µM]
CC1=C(C(=O)OC(C)C)C(c2ccc(C)cc2C)N2C(CC(=O)N3CCCC3)=CSC2=N1 (stereo unspecified),u
CCOC(=O)C1CCN(C(=O)Cc2ccc(N(Cc3ccccc3)C(=O)c3ccco3)cc2)CC1,-23%
CCn1ncc(N2CCCC(CC(=O)NCCc3ccccc3)C2)cc1=O (stereo unspecified),0%
CC(C)NC(=O)N1CCOc2ccc(CCC(=O)NCCCN3CCOCC3)cc2C1,1%
CN(C)CC(O)COc1ccc(CN2CCC(N3CCOC3=O)CC2)cc1 (stereo unspecified),3%
COc1ccc(NC(=O)N2C[C@@H]3C[C@H](C2)c2c(NC(=O)c4ccco4)ccc(=O)n2C3)cc1,2%
O=C(NCc1ccnc2[nH]ccc12)c1cncc(Br)c1,3%[70.6 µM]
CN(C)c1ccc2ncc(Nc3ccccc3Cl)n2n1,-1%[70.6 µM]
C=CCNC(=O)N[C@H]1CCN(C(=O)CC(C)(C)C)[C@@H]1C(=O)N(C)CC(N)=O,6%[70.6 µM]
CC(C)(C)NC(=O)CN1C(=O)C(c2ccccc2)=NC12CCCCC2,1%
CCC(c1cccs1)N1C(=O)[C@H]2CN(S(=O)(=O)c3ccc(F)c(C)c3)C[C@H]2C1=O (stereo partly specified),-7%
CCCN(CC1CCOC1)S(=O)(=O)c1ccccc1Br (stereo unspecified),3%
SMILES,hNpr1 antagonist
Fc1ccc(C2Cn3nnc(-c4nc(-c5ccc(Cl)cc5)no4)c3CO2)cc1 (stereo unspecified),-1%
COc1ccc(NC(=O)Cn2c(N(C)Cc3ccccc3)nc(C)cc2=O)cc1,11µM*
Cc1cc(=O)n(CC(=O)Nc2cccc(C)c2C)c(N(C)Cc2ccccc2)n1,-17%
COc1cc(OC)cc(C(=O)N2CCC(c3nc(C4CCOC4)no3)CC2)c1 (stereo unspecified),1%
CN(C)c1cc(N2CCCC(NC(=O)c3ccsc3)C2)ncn1 (stereo unspecified),2%
COc1cccc(C(=O)N2CCC3(CC2)NC(=O)N(c2cccc(F)c2)N3)c1OC,2%
COCCn1c(=O)n([C@H]2CCCN(C(=O)c3ccn[nH]3)C2)c2ncccc21,-3%
Cn1cccc1C(=O)N1CCCN(S(=O)(=O)c2ccccc2)CCC(=O)NCC1,0%
